FGF22 binding: shifts melting point of recombinant human FGF22; Q9HCT0; recombinant FGF22 thermal shift, SYPRO orange fluorescence; percent of sucrose octasulfate shift, DMSO zero; calls only at 9.99 µM; 340,000 compounds, 1.5% hits; AID 651658;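 active = melting point raised past a set limit in the mean and every replicate; inconclusive = no clear call; three in four hits are not shown here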
Target sequence (Q9HCT0 whole entry, looked up): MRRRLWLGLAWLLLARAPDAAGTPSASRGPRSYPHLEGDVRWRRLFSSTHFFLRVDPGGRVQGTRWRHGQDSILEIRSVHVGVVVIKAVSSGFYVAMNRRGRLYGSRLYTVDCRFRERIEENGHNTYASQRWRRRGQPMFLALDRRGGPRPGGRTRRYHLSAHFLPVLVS
MLL AF4-AF9 inh: MLL-AF4/AF9 protein interaction inhibition | P42568 | AlphaScreen, biotin-AF4 peptide binding to FLAG-AF9 | inhibition, % at 10 µM | 350,000 compounds, 0.47% hits;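 active = every replicate reaching a set inhibition limit, whatever the replicate mean, cut at about 25% in these data; inconclusive = mean inhibition reaches that limit but some replicates miss it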;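 note: 0% = plate neutral control median and 100% = total signal loss; the record names both 10 and 1 µM as test concentration; the first replicate is given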
Target sequence (P42568 whole entry, looked up): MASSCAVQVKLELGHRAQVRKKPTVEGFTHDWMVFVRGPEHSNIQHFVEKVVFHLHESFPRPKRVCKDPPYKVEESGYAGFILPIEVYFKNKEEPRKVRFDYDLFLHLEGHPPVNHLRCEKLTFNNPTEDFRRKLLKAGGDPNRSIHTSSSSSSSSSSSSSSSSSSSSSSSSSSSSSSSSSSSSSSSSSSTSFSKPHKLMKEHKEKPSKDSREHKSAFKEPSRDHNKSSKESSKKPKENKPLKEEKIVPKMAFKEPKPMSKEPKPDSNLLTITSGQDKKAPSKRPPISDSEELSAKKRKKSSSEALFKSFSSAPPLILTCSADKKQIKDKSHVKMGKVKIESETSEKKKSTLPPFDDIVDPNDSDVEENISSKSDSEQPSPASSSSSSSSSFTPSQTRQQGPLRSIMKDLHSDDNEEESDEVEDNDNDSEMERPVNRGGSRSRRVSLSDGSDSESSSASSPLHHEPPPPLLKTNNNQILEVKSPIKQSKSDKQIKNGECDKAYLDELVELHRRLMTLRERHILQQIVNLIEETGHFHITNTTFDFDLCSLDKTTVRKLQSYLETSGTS
Ecoli rRNA inh: selective bacterial rRNA inhibition in E. coli | E. coli WT GFP vs humanized-ribosome RFP mutants, fluorescence, 24 h; hits give low values; DMSO median 0, no signal -100 | GFP signal change (wild-type ribosome), % (test concentration not listed) | AID 720706 | 350,000 compounds, 1.6% hits;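 active = significant combined selectivity score with lowered wild-type GFP, culture density cut under 30%, mutant RFP and density less affected; inactive = any of these conditions unmet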; note: one replicate is shown; some compounds called inactive have numbers as strong as hits
T cruzi repl: blocks replication of Trypanosoma cruzi | AID 1885 | 300,000 compounds, 1.4% hits | inhibition, % (no concentration beside the values) | T. cruzi beta-gal in NIH3T3, luminescence, 90 h;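 active = mean inhibition across valid replicates above about 55%, limit read from the data; inconclusive = mean below that limit but half or more replicates reach it; inactive = mean below it, under half of replicates reach it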;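 note: signal also drops with host cell toxicity which is not excluded here; 0% = plate median of DMSO wells and 100% = zero luminescence signal; higher percent means less beta-gal luminescence so fewer parasites; stock transfer was 50 nL into about 50 µL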
Beta apoptosis: beta cell apoptosis inhibition. INS-1E cytokine-induced death, ATP luminescence, 48 h; percent of positive-control rescue, neutral wells zero. protection from apoptosis, % (test concentration not listed). 300,000 compounds, 0.8% hits. AID 435005;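 active = all replicates at 75% or more, or half of them and the mean; inconclusive = half reach 75% but not the mean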;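 note: 0% = cytokine-treated negative control wells and 100% = positive control rescue; higher means more ATP so stronger rescue from cytokine killing; wells of about 40 µL received 100 nL stock; the first replicate is given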
ALR inh: inhibitors of human sulfhydryl oxidase ALR | purified ALR, DTT oxidation, H2O2 HRP-luminol luminescence | 290,000 compounds, 3.8% hits | inhibition, % (no concentration beside the values) | AID 485317 | P55789;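 active = mean and each replicate at 75% or more; inconclusive = only one of the two met; inactive = neither met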;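 note: stock transfer was 7.5 nL into about 7.5 µL; 0% = neutral wells and 100% = wells with inactivated enzyme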
Target sequence (P55789 whole entry, looked up): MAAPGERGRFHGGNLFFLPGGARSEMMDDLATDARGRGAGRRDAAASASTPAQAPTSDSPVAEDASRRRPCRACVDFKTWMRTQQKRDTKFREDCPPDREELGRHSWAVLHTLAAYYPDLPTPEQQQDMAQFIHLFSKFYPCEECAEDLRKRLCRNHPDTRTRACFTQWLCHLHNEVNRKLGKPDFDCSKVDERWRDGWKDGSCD
Calb FLC: C. albicans growth modulation with fluconazole; AID 1979; growth inhibition, % (test concentration not listed); 300,000 compounds, 0.57% hits; C. albicans CaCi-2 (fluconazole-resistant clinical isolate) + fluconazole, Alamar Blue growth, 48 h;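 active = most replicates above 75%; inconclusive = exactly half above 75%; inactive = most below 75%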;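 note: all wells also contain fluconazole at 8 µg/ml as a sub-toxic cotreatment; 0% = median of DMSO wells and 100% = median of geldanamycin control wells; wells of about 8 µL received 7.5 nL stock; the first replicate is given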
RanGTP-Imp inh: disruptors of Ran-importin-beta complex formation – biochemical, FRET, CFP-Ran, YFP-importin-beta, homogeneous, primary screen; cell-free CFP-Ran/YFP-importin-beta FRET ratio; inhibition, % (no concentration beside the values); 300,000 compounds, 1.1% hits; AID 2216;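 active = most replicates above 15%; inconclusive = exactly half above 15%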;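 note: 0% = DMSO wells and 100% = Ran loaded with GDP instead of GTP; wells of about 40 µL received 100 nL stock; the first replicate is given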
Ecoli rRNA inh OD600: recorded beside Ecoli rRNA inh, whose call it bears; OD600 change, %; measured here: OD600 growth;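 optical density of the mix in the first replicate; 0 = DMSO median and -100 = no signal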
Ecoli rRNA inh RFP: recorded beside Ecoli rRNA inh, whose call it bears; RFP signal change, %; measured here: RFP humanized mutant strains;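 first replicate; 0 = DMSO median and -100 = no signal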
* marks the source's active call; other numbers are inactive results; i = inactive; ? = inconclusive; · = not tested or not shown. An excerpt (hit frequency here may not be typical).

Second line of a record – FGF22 binding	MLL AF4-AF9 inh	Ecoli rRNA inh	Ecoli rRNA inh OD600	Ecoli rRNA inh RFP	T cruzi repl	Beta apoptosis	ALR inh	Calb FLC	RanGTP-Imp inh
COC(=O)c1ccc(OC(=O)c2ccccn2)cc1
 : ·	·	·	·	·	-9	-1	96*	0	1.1
COCc1ccc2oc(C(=O)O)cc2c1
 : ·	·	·	·	·	-22	1	-12	5	1.6
Cc1ccc(S(=O)(=O)N2[C@@H](c3ccccc3F)C(C(=O)O)=CC[C@H]2c2cccc(Cl)c2)cc1
 : i	-3.9	-34	-38	-7.1	·	-1	3	·	·
O=C(COc1ncnc2sccc12)N1CCN(S(=O)(=O)c2ccc(Cl)cc2)CC1
 : ·	·	·	·	·	3	-3	1	0	-2.3
O=C(N/N=C/c1cnc2ccccc2n1)c1cccc(F)c1
 : ·	·	·	·	·	5	-6	-2	?	-0.8
O=C(Nc1cccc2ccccc12)c1ccc([N+](=O)[O-])s1
 : i	2.1	-46	-64	-11	57*	8	-38	16	3.0
COc1cccc(-c2nc(CS(=O)(=O)CC(=O)NCCCc3ccccc3)c(C)o2)c1
 : i	-0.5	-1	7	0.4	14	-2	-4	3	1.4
COc1ccc(C(=O)C2CCCN(C(=O)c3ccc(CSC)o3)C2)cc1F (stereo not drawn)
 : i	-0.3	-14	-15	2.5	13	-3	-7	4	1.4
COC(=O)c1c(C)[nH]c(C(=O)NCCc2ccc(S(N)(=O)=O)cc2)c1C
 : i	-1.4	0	4	-3.2	-1	0	-2	6	4.8
COCCN1C=C(C(=O)OC)C(c2ccc3c(c2)OCO3)C(C(=O)OC)=C1
 : ·	·	·	·	·	3	-4	-2	7	-1.2
CCC(=O)N(Cc1cc2cc(OC)ccc2[nH]c1=O)c1ccc(C)cc1
 : i	0.6	-9	-5	1.1	3	3	-14	9	?
CC(=O)Nc1sc(C)c(C)c1C(=O)OC1CCOC1=O (stereo not drawn)
 : ·	·	·	·	·	-7	-19	-3	0	5.7
COc1ccc(N2CCN(C(=O)CCc3ccc(S(=O)(=O)NC(C)(C)C)cc3)CC2)cc1
 : i	2.6	0	0	0.5	17	3	27	-11	1.3
Cc1ccccc1OCCC(=O)Nc1ccc(S(=O)(=O)N(C)C2CCN(C)CC2)cc1
 : i	8.6	11	19	1.1	58*	0	-3	3	·
COc1ccc(C(=O)c2c3ccccc3[n+]([O-])n2Cc2ccc(C(N)=O)cc2)cc1
 : i	-21	5	-9	25	·	-3	21	·	·
CS(=O)(=O)c1ccc(Sc2nc3ccccc3[nH]2)c([N+](=O)[O-])c1
 : ·	·	·	·	·	44	-12	-43	6	6.6
COCC(=O)NC1CCN(CC(=O)Nc2ccccc2[N+](=O)[O-])CC1
 : i	5.0	·	·	·	-13	0	-1	?	3.5
O=C(NCCS(=O)(=O)N1CCN(c2ccccc2F)CC1)c1ccc(F)c(F)c1
 : i	-0.6	2	1	-2.5	-1	-1	-4	0	-1.7
COc1ccc(CN2CCN(C(=O)c3ccco3)CC2)cc1
 : ·	·	·	·	·	-3	-3	·	14	4.6
Cc1cc(=O)c(C(=O)O)cn1Nc1ccc(F)cc1
 : ·	·	·	·	·	1	-11	-2	-1	-0.2
Cc1onc(-c2c(Cl)cccc2Cl)c1C(=O)Nn1cnnc1
 : ·	·	·	·	·	-7	-3	-10	5	1.5
COc1ccc(C(C)(C)C)cc1NC(=O)CCCn1c(=O)oc2ccccc21
 : ·	·	·	·	·	4	-2	1	1	-0.9
N#Cc1cccc(Cn2nnc(-c3ccccc3)n2)c1
 : ·	·	·	·	·	3	1	0	-2	1.1
COc1ccc(C(=O)Nc2nnc(CCc3ccccc3)s2)c(OC)c1
 : i	2.6	2	5	-0.7	13	-4	0	11	-1.6
CCN(CC)C(=O)c1nc[nH]c1C(=O)N1CCN(c2ccccc2)CC1
 : i	-1.4	27	14	-7.2	·	-8	39	·	·
Cc1ccc(C)c(NC(=S)N2CCCCC2CO)c1 (stereo not drawn)
 : i	0.8	11	5	-0.9	-23	-3	-3	0	2.1
COc1ccc(C(=O)NCc2ccc3c(c2)CCO3)cc1
 : i	0.4	8	7	0.6	7	-8	-1	5	-4.6
CCOC(=O)N1CCN(C(=O)CN2C(=O)COc3ccc(C)cc32)CC1
 : ·	·	·	·	·	-16	-1	-3	4	0.3
COc1ccc(C(=O)OCC(=O)NC2CCCC2)c(OC)c1OC
 : i	-4.8	13	12	4.1	-7	-2	-1	-6	8.3
O=C(NCc1ccccc1)C1CCN(S(=O)(=O)c2ccc(N3CCCC3=O)cc2)CC1
 : i	1.2	2	12	-1.9	0	4	-12	-4	1.0
Cc1ccc(/C=N/NC(=O)c2cc(-c3ccncc3)nc3ccccc23)o1
 : i	1.1	-3	-2	-3.0	-3	·	·	-6	-1.2
Cc1ccc(C(=O)Nc2cccnc2Oc2ccc(Cl)cc2)cc1
 : i	-5.4	-18	-11	23	4	-6	-8	0	-3.5
CCCC(=NCC(=O)O)C1=C(O)C(C(=O)OC)C(C)(C)CC1=O (stereo not drawn)
 : ·	·	·	·	·	-2	4	-2	2	1.8
O=C(NCc1cccs1)c1cc(S(=O)(=O)N2CCCCC2)ccc1Cl
 : i	1.1	-5	-4	0.1	1	·	-12	-4	?
CN=C(C)C1=C(O)C(C(=O)OC)C(C)(C)CC1=O (stereo not drawn)
 : ·	·	·	·	·	-16	1	-5	5	?
CCC(C)(C)NC(=O)c1cccc(NC(=O)C(C)C)c1
 : i	-0.4	8	3	1.1	-18	-6	-2	-3	-1.1
CCn1nnnc1SCC(=O)Nc1nc(-c2cccs2)cs1
 : ·	·	·	·	·	2	-1	44	4	0.7
O=C(CN1CCN(c2ccccc2)CC1)c1c[nH]c2ccccc12
 : i	2.8	-6	-3	-1.0	-1	-3	25	3	-0.3
CC(C)(C)C(=O)OCc1cn(-c2ccc(Cl)cc2)nn1
 : ·	·	·	·	·	-2	1	-15	1	0.1
CCOc1ccc(NC(=O)CSc2nnc(Cn3cnc([N+](=O)[O-])n3)n2C)cc1
 : ·	·	·	·	·	-22	-7	·	4	-1.0
COc1ccccc1/C=N/OC(=O)c1ccc(C)cc1
 : i	1.6	3	-1	-1.2	-15	-3	-8	6	-3.9
Cc1cc(-c2ccc(C)c(S(=O)(=O)NCC3CCN(Cc4cccc(F)c4)CC3)c2)on1
 : i	0.8	-21	-19	0.7	40	7	-5	-14	2.9
CC1Oc2ccccc2N(CC(=O)N2CCCCCC2)C1=O (stereo not drawn)
 : i	-1.9	15	9	0.9	-4	2	·	11	0.8
CC1C=CCC2C(=O)N(c3cc(Cl)ccc3O)C(=O)C12 (stereo not drawn)
 : i	-1.2	8	0	11	-8	0	4	-8	4.2
COC(CN(C)S(=O)(=O)c1cc2c3c(c1)CCC(=O)N3CCC2)OC
 : i	-3.0	12	7	2.2	-14	-6	4	-2	1.2
COc1ccccc1/C=C/C(=O)OCC(=O)NCc1ccco1
 : ·	·	·	·	·	-2	-8	68	25	-2.3
CC(C)n1nc(C(=O)OCC(=O)N(C)C2CCS(=O)(=O)C2)c2ccccc2c1=O (stereo not drawn)
 : ·	·	·	·	·	-18	-9	-23	0	-0.2
O=C(Nc1cnc2ccccn2c1=O)c1ccc(Cl)cc1
 : ·	·	·	·	·	0	-2	-3	-25	1.0
NC(Cc1c[nH]c2ccccc12)C(=O)NCc1ccco1 (stereo not drawn)
 : i	3.4	13	3	2.4	17	-2	-9	42	1.0
N/C(=N\OC(=O)c1cccc2ccccc12)c1cccnc1
 : i	-3.6	4	4	-0.3	20	1	1	27	2.2
CCOC(=O)N1CCN(C(=O)c2ccc([N+](=O)[O-])cc2Cl)CC1
 : i	-1.1	7	9	1.5	-3	-2	-20	-2	-12
CC(CCc1ccccc1)NC(=O)CN1CCN(c2ccc(O)cc2)CC1 (stereo not drawn)
 : i	1.0	-1	6	-1.6	19	3	100*	95*	8.4
O=C(Cc1c(F)cccc1Cl)Nc1ccc(S(=O)(=O)N2CCOCC2)cc1
 : i	-1.7	1	-5	-1.5	3	1	4	8	?
Cc1cc(NC(=O)NC2(C(F)(F)F)Oc3ccc(Cl)cc3O2)no1 (stereo not drawn)
 : i	-17	-2	11	-6.5	-30	-1	-2	-9	?
COc1ccccc1C(=O)NNC(=S)Nc1ccccc1
 : ·	-1.1	-27	-29	-8.0	-5	·	·	10	-0.7
Nc1c2nc(-c3ccccc3)[nH]c(=O)c2nc(=O)n1-c1ccccc1
 : i	-1.6	7	6	2.6	9	5	1	5	0.5
Cn1nnc(-c2ccc(OCc3ccccc3F)cc2)n1
 : ·	·	·	·	·	2	5	-9	-5	?
COc1cccc(-c2cccc(NC(=O)C3CCN(CC4CCOC4)CC3)c2)c1 (stereo not drawn)
 : i	-1.7	-1	7	-1.5	-4	-1	-7	-5	0.2
Cc1ccc(SCC(=O)c2c(C)nc3ccccn23)cc1
 : i	1.9	-28	-40	8.3	12	2	2	10	-0.4
CCOc1ccc(NS(=O)(=O)c2ccc3c(c2)N(C(C)=O)CCS3)cc1
 : i	-0.1	1	-3	1.4	-5	5	-4	5	3.9

Remaining list, next part.
Second line of a record – FGF22 binding	MLL AF4-AF9 inh	Ecoli rRNA inh	Ecoli rRNA inh OD600	Ecoli rRNA inh RFP	T cruzi repl	Beta apoptosis	ALR inh	Calb FLC	RanGTP-Imp inh
Cc1ccc(S(=O)(=O)N2CCOCC2)cc1C(=O)NCC1CCCCC1
 : i	-15	1	-24	2.6	·	-1	-4	·	·
CCN1C(=O)[C@@H]2[C@@H](c3ccc(-c4cccc(Cl)c4)c(OC)c3)N3CCCC[C@@]3(C(=O)OC)[C@@H]2C1=O
 : i	3.3	7	-2	10	48	11	0	8	-1.4
CCc1ccc(C2c3[nH]c4ccccc4c3CCN2C(=O)c2cc[n+]([O-])cc2)cc1 (stereo not drawn)
 : i	8.4	3	-4	9.1	6	-4	-19	10	3.6
C=CC[C@H](CC(=O)N(CCO)Cc1ccccc1)C(=O)N[C@@H](COC(=O)[C@@H](CC=C)CC(=O)OC(C)(C)C)Cc1c[nH]c2ccccc12
 : i	-2.9	9	0	4.1	·	6	-3	·	·
O=C(NCCc1c[nH]c2ccccc12)C1CCN(S(=O)(=O)c2ccccc2F)CC1
 : ·	1.7	-19	-18	-1.0	2	-10	54	-2	3.7
O=C(Nc1ccc(N2CCOCC2)cc1Cl)C1CCN(C(=O)OCc2ccccc2)CC1
 : i	6.0	-7	6	0.3	2	1	-5	-1	0.5
CCCCN(C)CCCNC(=O)c1cc(-c2cccs2)nc2ccccc12
 : i	-54	10	8	4.7	64*	-4	2	-10	-1.1
COc1ccc(NS(=O)(=O)c2ccc(NC(=S)NC(=O)CC(C)C)cc2)cc1
 : ·	·	·	·	·	·	-5	-6	0	-1.5
Cc1sc(NC(=O)c2ccc(OCC(C)C)cc2)c(C(N)=O)c1-c1ccc(Cl)cc1Cl
 : ·	·	·	·	·	5	21	6	-5	?
O=C(O)CCC(NC(=O)C1CCCN1C(=O)OCc1ccccc1)C(=O)O (stereo not drawn)
 : i	-0.4	16	16	-2.2	-8	-1	-25	-20	0.5

Compound activity (PubChem)
